NPYLR7 ag – mosquito NPYLR7 agonism. HEK293T NPYLR7/Galpha15, GCaMP6s calcium fluorescence. activation, % at 10 µM. 0.15% of 270,000 active; in the data active = activation above about 40%;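 note: 0% = vehicle and 100% = reference agonist at the receptor; some compounds past the cut are filed as inactive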
NPYLR7 ag max-min – recorded beside NPYLR7 ag, whose call it bears; activation, %; measured here: Max-Min RFU normalised activation; some inactives read as strong as hits;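 span of the calcium signal over five minutes; 0% = vehicle and 100% = native peptide agonist; compound fluorescence can raise it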
Numbers without * were called inactive; i = inactive; & = joins results of further samples. This is a subset, so the mix of outcomes need not match the whole.

SMILES | NPYLR7 ag | NPYLR7 ag max-min
CN1CCCc2cc(C(CNC(=O)c3ccccc3)N3CCOCC3)ccc21 (stereo not given) | 7 | 3
CCOC(=O)c1cnc2nc(-c3cccnc3)nn2c1-c1ccccc1 | -1 | -3
O=C(CC1CC2CCC1C2)NCCN1C(=O)S/C(=C/c2cccnc2)C1=O (stereo not given) | -11 | -14
Cn1c(C(C#N)=C(O)/C=C/c2ccccc2Cl)nc2ccccc21 | -3 | -4
CC#CCN1CCC=C(CCNC(=O)C2CCCCC2)C1 | 0 | -1
CCOC(=O)c1ccc(NC(=O)N2CCN(CC(OCc3ccc(C(=O)OC)cc3)c3ccc(Cl)cc3)CC2)cc1 (stereo not given) | -3 | -1
Cc1cc(NC(=O)C2(C)CCN2C(=O)c2ccc(C(C)(C)C)cc2)sn1 (stereo not given) | 5 | 3
Nc1c(C(=O)CCC(=O)O)oc2ccc(Br)cc12 | -4 | -6
O=C(c1cccs1)N1CCC(c2nc3cc(Cl)ccc3s2)CC1 | 3 | 1
O=C(/C=C/C(=O)N(c1ccccc1)c1ccccc1)OCC(=O)c1ccccc1 | 1 | -1
CC(C)Cc1ccc(-c2cc(C(=O)Nc3nccs3)c3ccccc3n2)cc1 | 2 | 7
Cc1nc(-c2c(C(=O)NNS(=O)(=O)C[C@@]34CC[C@@H](CC3=O)C4(C)C)noc2C)cs1 | -13 | -18
CO[C@H]1CN(C(=O)c2csc(CN(C)C)n2)CC[C@H]1N | 1 | 4
N#C/C(=C/c1cccn1-c1ccc(C(=O)O)cc1)c1cccc(F)c1 | 0 | -6
COc1cccc(Cc2nc3c(c(N4CCOCC4)n2)CN(C(=O)C(C)(C)CCl)CC3)c1 | 6 | 10
COCCn1ccc2c(cnc3nc(-c4ccccc4)nn32)c1=O | 0 | 5
Cc1ccc(-n2ncc3c2ncn2nc(-c4ccccc4O)nc32)c(C)c1 | -3 | -4
Cc1ccc(NC(=O)c2ccccc2NS(=O)(=O)c2ccc(F)cc2)nc1 | 7 | 0
CC(=O)N1CCN(C(=O)COc2ccccc2C(=O)Nc2ccccc2)CC1 | 5 | 4
O=CN1CCc2c([nH]c3ccccc23)C1c1cccc2cccnc12 (stereo not given) | 3 | 1
CCOC(=O)C1CCCN(NC(=O)c2cccc3c2OCC3)C1 (stereo not given) | 9 | 2
CC1=CC[C@@H]2CN(C(=O)c3cnc(C(C)C)nc3C)C[C@@H]2C1 | 5 | 4
O=C(NC1CC1)c1coc(CN(Cc2ccc(F)cc2)Cc2cccc(Oc3ccccc3)c2)n1 | 16 | 8
CCCCN(Cc1ccco1)C(=O)c1cn(CC)c2nc(C)ccc2c1=O | -1 | -1
O=C(Nc1ccc(Cc2nc3ccccc3s2)cc1)c1ccc(=O)[nH]n1 | -3 | 0
COc1ccc(CNC(=O)c2c(C)noc2-c2cccc(C(F)(F)F)c2)cc1 | 28 | 15
CC(C)(C)NC(=O)Cn1nc(C2CC2)c2cnn(-c3ccc(F)cc3)c2c1=O | 7 | 5
CC(CNC(=O)CCc1nnc(CCC2CCCCC2)o1)c1ccccc1 (stereo not given) | 2 | -1
COc1cc(OC)cc(C(=O)N2CCC3(CC2)C(=O)N(CC(=O)NCCc2ccc(OC)c(OC)c2)CN3c2ccccc2)c1 | 26 | 23
O=c1c(-c2ccc3c(c2)OCCO3)coc2cc(O)ccc12 | -3 | -4
O=C(Nn1cnc2ccccc21)c1ccc(F)cc1 | -4 | -9
O=C1CC2(CCCC2)C(=O)N1CN1CCN(S(=O)(=O)c2ccc(F)c(F)c2)CC1 | 5 | 2
CCCCN(Cc1cccn1Cc1ccc(Br)cc1)C(=O)CN(CCCOC)C(=O)NCC(=O)OCC | -7 | -8
COc1ccc(C(=O)Nc2nc(-c3ccc(C)cc3)cs2)c(OC)c1 | -1 | -2
CCOC(=O)c1c(NC(=O)c2ccoc2C)sc(C(N)=O)c1C | -7 | -11
CCS(=O)(=O)c1ccc2c(c1)N(Cc1cccc(C(F)(F)F)c1)C(=O)C(C)O2 (stereo not given) | -3 | -4
CCc1cnc2c(c1SCc1ccc([N+](=O)[O-])cc1)c(=O)n(C)c(=O)n2C | 9 | 15
CN(C)S(=O)(=O)c1ccc(S(=O)(=O)NC2(c3ccc(Cl)c(Cl)c3)CC2)cc1 | 1 | -2
CCOC(=O)c1nn(-c2ccc(C)cc2)c(=O)cc1N1CCc2ccccc2C1 | 8 | 4
COc1ccc(N2C(=O)NC3CC2(C)Oc2c(OC)cc(Br)cc23)cc1 (stereo not given) | -12 | -16
Nc1nc2c(s1)CN(Cc1cc3n(n1)CCNC3)CC2 | 7 | 5
CC(C)c1nnc2c(=O)n(-c3ccc(F)cc3)ccn12 | 2 | -5
CCCn1ccnc1CN1CCC2(CC1)C(=O)NCCCN2C | 16 | 8
C=CCN1CC(OC(=O)NC(C)C)CN(S(=O)(=O)c2cccs2)CC1=O (stereo not given) | -1 | 8
Cc1cccc(Nc2ncnc3c2CN(C(=O)c2sc(C4COc5ccccc5O4)nc2C)CC3)c1 (stereo not given) | -1 | -2

Quoted at random: 3 entries already listed, in no set order.
SMILES | NPYLR7 ag | NPYLR7 ag max-min
COc1ccc(C(=O)Nc2nc(-c3ccc(C)cc3)cs2)c(OC)c1 | -1 | -2
CCS(=O)(=O)c1ccc2c(c1)N(Cc1cccc(C(F)(F)F)c1)C(=O)C(C)O2 (stereo not given) | -3 | -4
COc1ccc(N2C(=O)NC3CC2(C)Oc2c(OC)cc(Br)cc23)cc1 (stereo not given) | -12 | -16

(next part)
SMILES | NPYLR7 ag | NPYLR7 ag max-min
CN1C(=O)CCC1CNc1nccc(CCC(F)(F)F)n1 (stereo not given) | -4 | 0
NS(=O)(=O)c1ccc(Cl)c(C(=O)NCC2CCCC2)c1 | 4 | 5
O=C(c1cc(=O)[nH]c2ccc(Cl)cc12)N1CCC2OCCCC2C1 (stereo not given) | -1 | 21
Cc1cc(C(C)(C)C)cc(C)c1S(=O)(=O)N1CCCCC1CNC(N)=O (stereo not given) | 11 | 6
Cc1cc(Cl)cc(Cl)c1CNC(=O)c1cncn1-c1ccc(-c2cc(C(F)(F)F)cc(C(F)(F)F)c2)cc1 | 11 | 4
CN1CCN(CC2(CNC(=O)c3c(O)cccc3O)CC2)CC1 | -3 | -7
O=C(O)C1(Cc2ccccc2Cl)CCN(c2ncnc3nc[nH]c23)CC1 | 26 | 17
CCCCCNC(=O)C1CCCCC1C(=O)N1CCc2c([nH]c3ccccc23)C1 (stereo not given) | 0 | -6
O=C1OC(c2ccc(Br)cc2)=NC1=Cc1ccco1 | 5 | 5
COC(=O)c1ccccc1-c1cc(C)cc2c1OC(CNC(=O)C1CCC(=O)N1)C2 (stereo not given) | 4 | 0
N[C@@H](CCC(=O)N[C@H](CSN=O)C(=O)NCC(=O)O)C(=O)O | 0 | -26
CC(C)CN1C(=O)C2(Nc3ccccc3C(=O)N2C2CC2)c2ccccc21 (stereo not given) | 5 | 2
CCOc1ccccc1OCCN(C)C(=O)c1c(C)nc2ncccn12 | 1 | 2
CC=CCSc1nc2c(c(=O)[nH]c(=O)n2C)n1Cc1cccc(C)c1 | 6 | 0
C=C(NN=c1sc2ccccc2n1C)c1ccc(C)c(C)c1 | 5 | 2
C=CCOCC(O)CN(Cc1ccccc1Cl)C(C)C (stereo not given) | 31 | 34
CC(NC(=O)Nc1cccc(Cn2cncn2)c1)C(=O)NC(C)(C)C (stereo not given) | 0 | 7
Cc1ccc(Cc2nsc(N(C)CC(=O)NC(c3ccccc3)c3ccccc3)n2)cc1 | 13 | 11
CN(CCCc1cnn(C)c1)Cc1ccccc1 | -3 | -4
CC1CCCCN1Cc1nc2c(c(=O)n(C)c(=O)n2C)n1Cc1ccc(Cl)cc1Cl (stereo not given) | 0 | 6
CCOc1ccc(N=C2S/C(=C/c3cccnc3)C(O)=C2C(=O)OC)cc1 | -9 | -5
C1CCC2(CC1)NN=C1SCCN1N2 | 5 | 12
Cc1cc(C(=O)N2CCOC(C(F)(F)F)C2)cc2sc(N)nc12 (stereo not given) | 1 | -3
Cc1cc(=O)n(-c2c(C)cc(S(=O)(=O)O)cc2Cl)[nH]1 | 0 | -1
OC(CCCN1CCCCC1)(c1ccccc1)c1ccccc1 | -1 | -7
Cc1ccc2c(=O)c(-c3nc(-c4ccc(Cl)cc4)no3)cn(Cc3ccc(F)cc3)c2n1 | -8 | -9
CCn1cc(S(=O)(=O)n2c(C)nc3ccccc32)cn1 | 3 | 1
COc1cc(CN2CCn3nc(C(=O)NCCOc4ccccc4)cc3C2=O)cc(OC)c1 | -2 | 0
COc1ccc2oc(=O)c(C(=O)Nc3ccc(C(C)=O)cc3)cc2c1 | -9 | -23
CCN(C(=O)c1cnc2sc(C)cn2c1=O)c1ccccc1 | 6 | 1
N[C@H](Cc1cc(I)c(Oc2ccc(O)c(I)c2)c(I)c1)C(=O)O | -4 | -8
CC(C)c1nccn1CCCNC(=O)c1ccc(-c2ccsc2)nc1 | -1 | -3
Cc1ccc(S(=O)(=O)Nc2cc(O)cc(F)c2)cc1Cl | 7 | i
CC(C)c1nnc(CNC(=O)c2cnn(C(C)(C)C)c2)s1 | -2 | -5
O=C(Cc1ccc(F)cc1)Nc1ccc(N2CCC(Cc3ccccc3)CC2)c(C(=O)NCC2CCCO2)c1 (stereo not given) | -9 | 3
CN(C)CCN1CN=C(NS(=O)(=O)c2ccccc2)NC1 | -7 | -16
CN(CC(=O)NC(C)(C)C)c1nc2ccccc2o1 | 12 | 3
CS(=O)(=O)Nc1nc2n(n1)C(c1ccccc1)CC(c1ccccc1)=N2 (stereo not given) | 16 | 11
CCc1ccccc1NC(=O)CN(C)C(=O)CNC(=O)c1ccco1 | 6 | 6
Cc1ncc(C(=O)N2CCCC(Cn3cc(-c4ccccn4)nn3)C2)[nH]1 (stereo not given) | -1 | -2
O=c1[nH]nc(-c2ccco2)n1CCc1ccccc1F | 10 | 7
CC(=O)N1CCc2cccc(NC(=O)Cc3cnn(C)c3)c21 | 3&0 | 1&3
CCOCCCn1c(SCc2ccc(OC(F)F)cc2)nc2cc(C(=O)OCC)ccc21 | 2 | -4
Cc1cc(C)c2ccc(C(=O)N3CCC(O)(CN(C)C)C3)nc2c1O (stereo not given) | 21 | 5
O=C(NCCc1ccccc1)C(Br)C(Br)c1ccccc1 (stereo not given) | -4 | -9

A draw from above in order of formula weight, high to low:
SMILES | NPYLR7 ag | NPYLR7 ag max-min
N[C@H](Cc1cc(I)c(Oc2ccc(O)c(I)c2)c(I)c1)C(=O)O | -4 | -8
O=C(Cc1ccc(F)cc1)Nc1ccc(N2CCC(Cc3ccccc3)CC2)c(C(=O)NCC2CCCO2)c1 (stereo not given) | -9 | 3
CCOCCCn1c(SCc2ccc(OC(F)F)cc2)nc2cc(C(=O)OCC)ccc21 | 2 | -4
COc1cc(CN2CCn3nc(C(=O)NCCOc4ccccc4)cc3C2=O)cc(OC)c1 | -2 | 0
Cc1ccc2c(=O)c(-c3nc(-c4ccc(Cl)cc4)no3)cn(Cc3ccc(F)cc3)c2n1 | -8 | -9
Cc1ccc(Cc2nsc(N(C)CC(=O)NC(c3ccccc3)c3ccccc3)n2)cc1 | 13 | 11
O=C(NCCc1ccccc1)C(Br)C(Br)c1ccccc1 (stereo not given) | -4 | -9
CCOc1ccc(N=C2S/C(=C/c3cccnc3)C(O)=C2C(=O)OC)cc1 | -9 | -5
CS(=O)(=O)Nc1nc2n(n1)C(c1ccccc1)CC(c1ccccc1)=N2 (stereo not given) | 16 | 11
CC(C)c1nccn1CCCNC(=O)c1ccc(-c2ccsc2)nc1 | -1 | -3
Cc1ncc(C(=O)N2CCCC(Cn3cc(-c4ccccn4)nn3)C2)[nH]1 (stereo not given) | -1 | -2
Cc1cc(C(=O)N2CCOC(C(F)(F)F)C2)cc2sc(N)nc12 (stereo not given) | 1 | -3
CC(NC(=O)Nc1cccc(Cn2cncn2)c1)C(=O)NC(C)(C)C (stereo not given) | 0 | 7
Cc1cc(C)c2ccc(C(=O)N3CCC(O)(CN(C)C)C3)nc2c1O (stereo not given) | 21 | 5
COc1ccc2oc(=O)c(C(=O)Nc3ccc(C(C)=O)cc3)cc2c1 | -9 | -23
Cc1ccc(S(=O)(=O)Nc2cc(O)cc(F)c2)cc1Cl | 7 | i
CCN(C(=O)c1cnc2sc(C)cn2c1=O)c1ccccc1 | 6 | 1
CN(C)CCN1CN=C(NS(=O)(=O)c2ccccc2)NC1 | -7 | -16
OC(CCCN1CCCCC1)(c1ccccc1)c1ccccc1 | -1 | -7
CC(C)c1nnc(CNC(=O)c2cnn(C(C)(C)C)c2)s1 | -2 | -5
Cc1cc(=O)n(-c2c(C)cc(S(=O)(=O)O)cc2Cl)[nH]1 | 0 | -1
C=CCOCC(O)CN(Cc1ccccc1Cl)C(C)C (stereo not given) | 31 | 34
CCn1cc(S(=O)(=O)n2c(C)nc3ccccc32)cn1 | 3 | 1
O=c1[nH]nc(-c2ccco2)n1CCc1ccccc1F | 10 | 7
CN(CC(=O)NC(C)(C)C)c1nc2ccccc2o1 | 12 | 3
CN(CCCc1cnn(C)c1)Cc1ccccc1 | -3 | -4
C1CCC2(CC1)NN=C1SCCN1N2 | 5 | 12
